Sfp inh – blocks B. subtilis Sfp PPTase activity | Q9F4F7 | Biochemical Sfp PPTase activity, qHTS | Potency, µM, inactives show max response, negative = inhibition, hits mostly inhibitors | 3.5% of 310,000 active | AID 1490; active = well fitted inhibition curve with a large enough effect; inconclusive = small, poorly fitted or top-dose-only effect, or another doubt; inactive = no such curve, though single readings can be large or run the other way;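 note: the enzyme is Sfp with the accession as filed and its product quenches rhodamine fluorescence; potency is the fitted concentration of half-maximal effect; 0% = enzyme reaction without inhibitor and -100% = no enzyme wells; top concentration of the series not given in the record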
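Fluorescence-quenching assay with 15 nM Sfp, 5 uM rhodamine-CoA and 12.5 uM BHQ-2-labelled ybbR peptide in pH 7.6 Hepes/MgCl2 buffer. Enzyme was pre-incubated with compound for 15 min at room temperature. Rate was taken from the 30-min fluorescence change (525/598 nm).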
CtBP-E1A blk – inhibitors of CtBP/E1A interaction | AID 651724 | AlphaScreen GST-E1A/His-CtBP binding, 1536-well; active compounds read low; control for the full effect not named in the record | activity change, % (no concentration beside the values) | 0.49% of 340,000 active; in the data active means activity change below about -65%; inconclusive means about -30% to -65%; inactive means above about -30%; note: % is set by controls: 0 for no effect and ±100 for the full control effect
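GST-E1A and His-tagged CtBP (125 nM each as 5X stock) were preincubated with pin-transferred compound for 2 h at 37 °C in the dark, then glutathione donor and nickel acceptor beads were added for 1 h before AlphaScreen reading.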
TRPV1 PAM – potentiators of human vanilloid receptor 1 (TRPV1). Q8NER1. TRPV1-expressing cells, Fluo-8 calcium influx, capsaicin EC20 potentiation; host cell line not named in the record; control for the full effect not named in the record. potentiation, % at 8.33 µM. 0.02% of 320,000 active. AID 540277; active means potentiation above 80%; inconclusive means 30% to 80%; inactive means below 30%; note: 0% is about no effect
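Fluo-8 calcium influx in TRPV1-expressing cells, kinetic read (ex 480/em 520 nm). Compound added and read 3 min for agonist activity, followed by capsaicin at EC20 final and 2 min further read for enhancement.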
PINK1 modulator – PINK1 expression modulation. 0.2% of 410,000 active. Potency, µM (top dose mostly 76.6 µM), for inactives: at the top dose activation (PINK1 increase), hits mostly activators. PINK1 immunofluorescence, high-content cytometry, 24 h; active = well fitted activation curve with a large enough effect; inconclusive = small, poorly fitted or top-dose-only effect; inactive = flat fitted curve, though single readings scatter; cell line not stated here;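 note: potency is the fitted concentration of half-maximal effect; % of control where 0% means no effect; nearly all actives have a fitted effect of over 65% in size; a mitochondrial uncoupler was the plate control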
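Compound titrations (5 concentrations, 24 h) on a stable cell line; DMSO and CCCP controls. Endpoint: fixed-cell PINK1 immunofluorescence with mitochondrial, cell and nuclear markers, scanned by microplate cytometer.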
Six1-Eya2 inh – Six1/Eya2 interaction inhibition | Q15475+O00167 | 0.56% of 360,000 active | AID 651725 | AlphaScreen GST-Six1/His-Eya2 binding, biochemical; active compounds read low; control for the full effect not named in the record | activity change, % (test concentration not listed); in the data active = activity change below about -65%; inconclusive = about -30% to -65%; inactive = above about -30%; note: % is set by controls: 0 for no effect and ±100 for the full control effect
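GST-Six1 + His-Eya2 (5X stock: 250/500 nM); Tris pH 8.0, 300 mM NaCl, 0.05% BSA, 0.02% Tween 20; GSH donor/Ni acceptor beads; 1 h 37 °C dark; AlphaScreen readout.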
D2 potentiator – positive allosteric modulators of human D2 dopamine receptor | DiscoveRx D2 beta-arrestin cells, luminescence, 90 min; 100% = 57 uM dopamine signal | P14416 | potentiation, % (test concentration not listed) | 0.23% of 360,000 active; active = potentiation of 50% or more; inconclusive = 30% to 50%; inactive = 30% or less;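 note: compound concentration not given in the record; tested on top of an EC20 dose of dopamine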
Target sequence (P14416 whole entry, looked up): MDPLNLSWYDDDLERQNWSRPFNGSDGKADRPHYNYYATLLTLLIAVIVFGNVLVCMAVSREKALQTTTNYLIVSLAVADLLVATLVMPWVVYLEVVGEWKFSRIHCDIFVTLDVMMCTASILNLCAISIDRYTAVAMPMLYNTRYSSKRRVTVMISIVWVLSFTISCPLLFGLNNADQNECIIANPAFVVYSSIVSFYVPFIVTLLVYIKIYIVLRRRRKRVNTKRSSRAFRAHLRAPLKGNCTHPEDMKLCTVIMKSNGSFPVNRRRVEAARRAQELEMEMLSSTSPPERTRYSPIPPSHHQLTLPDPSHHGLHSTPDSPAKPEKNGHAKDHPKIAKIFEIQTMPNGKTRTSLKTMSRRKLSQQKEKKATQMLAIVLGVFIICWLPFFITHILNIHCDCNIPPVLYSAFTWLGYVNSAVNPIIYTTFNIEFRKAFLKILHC
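D2 cells co-treated with compound plus 50 nM dopamine (EC20) for 90 min at 37 deg C to detect potentiation. Beta-arrestin recruitment was read as enzyme-fragment luminescence after 1 h at ambient temperature. Full response was set by 57 uM dopamine.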
D2 agonist – agonists of human D2 dopamine receptor (beta-arrestin) | P14416 | DiscoveRx PathHunter D2 beta-arrestin, luminescence, 90 min; 100% = 57 uM dopamine signal | activation, % (test concentration not listed) | 0.084% of 360,000 active; in the data active = activation above about 40%; inconclusive = about 15% to 40%; inactive = below about 15%; note: compound concentration not given in the record; the text of the record calls up to 30% inactive
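DiscoveRx PathHunter D2 beta-arrestin cells (2,100/well) attached overnight, then compound-stimulated 90 min at 37 C in HBSS/10 mM HEPES/0.1% Tween-20 buffer; beta-galactosidase complementation read by luminescence after 1 h at ambient temperature. Dopamine 57 uM final (EC100) as control.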
An asterisk follows results filed as active; u = inconclusive; x = no result given; & = joins results of further samples; [ ] = dose if it differs, or a comment.

SMILES	Sfp inh	CtBP-E1A blk	TRPV1 PAM	PINK1 modulator	Six1-Eya2 inh	D2 potentiator	D2 agonist
O=C(NC1CCCC1)c1cc2nc(-c3ccco3)cc(C(F)(F)F)n2n1	2%	2	-4	-0.8%	-1	-1	-3.9
Cc1cc(C)c2c(C)c(C(=O)NCc3ccc(S(N)(=O)=O)cc3)oc2c1	12%	-20	-2	-3.6%	-11	7	-1.6
O=C(Cc1ccccc1)NC1c2ccccc2-c2ccccc21	79µM*	0	-22	9.9%	-1	-6	-7.0
Cc1cc(NC(=O)COC(=O)c2ccc(Cl)cc2)no1	x	3	x	0.5%	-5	-9	1.7
COC(=O)/C(=N/Nc1ccccc1)N1CCCc2ccccc21	1%	u	-7	6.7%	-15	-3	-9.6
CN1C(=S)N(c2ccccc2)C(=O)/C1=C/c1ccco1	-44%	6	-6	15%	-6	6	0.3
N#CC(c1ccccc1)C(CC(=O)c1ccccc1)c1ccccc1 (stereo not given)	x	6	x	4.7%	13	-5	-1.8
Cc1nc2cc(-c3ccccc3)ccc2o1	-8%	7	-18	7.5%	3	2	1.8
Cc1ccc2c(c1)N(C(=O)CCC(=O)NCc1cccnc1)CCO2	18%	4	-22	0.2%	2	-10	-5.2
O=C(NC1C/C(=N/O)c2cc3c(cc21)OCO3)C(F)(F)F (stereo not given)	5%	-6	-3	0.4%	3	-6	-4.8

Single records, as listed above. Order of values: Sfp inh | CtBP-E1A blk | TRPV1 PAM | PINK1 modulator | Six1-Eya2 inh | D2 potentiator | D2 agonist
`CN1C(=S)N(c2ccccc2)C(=O)/C1=C/c1ccco1` as listed: -44% | 6 | -6 | 15% | -6 | 6 | 0.3
`Cc1cc(C)c2c(C)c(C(=O)NCc3ccc(S(N)(=O)=O)cc3)oc2c1` as listed: 12% | -20 | -2 | -3.6% | -11 | 7 | -1.6
`Cc1ccc2c(c1)N(C(=O)CCC(=O)NCc1cccnc1)CCO2` as listed: 18% | 4 | -22 | 0.2% | 2 | -10 | -5.2
`Cc1nc2cc(-c3ccccc3)ccc2o1` as listed: -8% | 7 | -18 | 7.5% | 3 | 2 | 1.8
`O=C(NC1CCCC1)c1cc2nc(-c3ccco3)cc(C(F)(F)F)n2n1` as listed: 2% | 2 | -4 | -0.8% | -1 | -1 | -3.9

Back to the main list; the three compounds before the break are reprinted first.
SMILES	Sfp inh	CtBP-E1A blk	TRPV1 PAM	PINK1 modulator	Six1-Eya2 inh	D2 potentiator	D2 agonist
Cc1nc2cc(-c3ccccc3)ccc2o1	-8%	7	-18	7.5%	3	2	1.8
Cc1ccc2c(c1)N(C(=O)CCC(=O)NCc1cccnc1)CCO2	18%	4	-22	0.2%	2	-10	-5.2
O=C(NC1C/C(=N/O)c2cc3c(cc21)OCO3)C(F)(F)F (stereo not given)	5%	-6	-3	0.4%	3	-6	-4.8
COc1ccc(CNC(=O)CCC(=O)N2CCN(C(C)=O)CC2)cc1	9%	0	-11	-2.0%	7	-4	6.0
COc1ccc(OC)c(NC(=O)CCN2CCN(c3ccccc3F)CC2)c1	u	-6	12	4.8%	-3	1	u
CCOc1cc(NC(=O)c2ccco2)c(OCC)cc1NC(=O)c1ccco1	4%	2	-3	2.0%	6	-3	-1.9
COc1ccc(CCNC(=O)CCSc2nc(-c3ccco3)cc(C(F)(F)F)n2)cc1	0%	-3	3	9.5%	14	-14	2.0
O=C1COc2ccc(S(=O)(=O)N3CCC(C(=O)NCc4ccccc4)CC3)cc2N1	13%	-8	-10	3.4%	-1	0	-2.6
C=CCSc1nc2ccccc2n1C(=O)/C=C/c1cc(OC)c(OC)c(OC)c1	-15%	-10	5	2.4%[38.3 µM]	-5	-19	-6.3
CC(C)c1onc(C(=O)NCc2ccccc2)c1[N+](=O)[O-]	2%	20	-11	1.2%	2	-10	-0.2
N#CC1(NC(=O)CSc2nc3ccc([N+](=O)[O-])cc3s2)CCCCC1	x	6	-5	-0.7%	-8	-5	-1.8
CCn1c(C)c(Br)c(=O)c(C(=O)OC)c1-c1ccc(Cl)cc1	16%	x	-7	0.4%	2	-6	-0.5
Cn1cc(CN2CCC(N3CCNC(=O)CC3)CC2)c(-c2ccccc2F)n1	12%	8	5	-0.2%	2	-2	1.7
CC(C)(C)NC(=O)/C(=C\c1ccco1)NC(=O)c1ccco1	2%	-21	4	1.4%	-6	1	-7.7
C[C@@H]1CN([C@@H](C)CO)C(=O)CCCn2cc(nn2)CO[C@H]1CN(C)S(=O)(=O)c1cn(C)cn1	x	-3	x	-0.9%	3	-3	-3.6
Cc1c(C)c2c(C)nn(-c3ccccc3)c2[nH]c1=O	15%	0	6	1.0%	-5	-10	-1.2
COC(=O)Cc1cc(=O)[nH]c(/N=C(\N)Nc2ccc(C)cc2C)n1	11%	-5	15	0.0%	8	-4	0.5
COc1ccccc1OCCNC(=O)CNC(=O)c1ccc2c(c1)OCO2	x	3	3	-3.1%	-3	-11	-1.8
O=C(CCNC(=O)C1CCN(S(=O)(=O)c2ccc(F)cc2)CC1)Nc1nccs1	13%	-15	2	-1.0%	7	1	3.4
O=C1/C(=C/c2ccccc2)SC(=S)N1CC(=O)N1CCCCC1c1cccnc1 (stereo not given)	-15%	-23	5	-0.6%	-19	-19	3.2
CC(CCc1ccccc1)NC(=S)NC1CCCCC1 (stereo not given)	10%	-21	-6	0.5%	3	-11	-1.8
CCN1CCN(c2ccc(N3CCN(S(=O)(=O)c4cc([N+](=O)[O-])ccc4C)CC3)nn2)CC1	x	-8	-1	1.7%	1	-4	-0.7
CC1(C(=O)Nc2ccc(Cl)cc2)Cc2c(-c3cccc(C(F)(F)F)c3)ccnc2O1 (stereo not given)	x	0	x	6.4%	-7	1	-3.2
Cc1ccc(S(=O)(=O)C2(C(=O)Nc3ccc(F)cc3)CC2)cc1	13%	5	0	-2.5%	6	-4	-13
COCCNC(=O)CSc1nc2nn(-c3ccccc3)c(=O)c-2c2n1CCCCC2	5%	3	-18	0.8%	3	2	-1.9
COc1ccc(/C=C(\C#N)C(=O)N2COCC2(C)C)cc1	6%	x	-13	0.3%	8	-14	-0.6
O=C(c1ccc(-c2ccccc2)cc1)C1CCCN(Cc2ccncc2)C1 (stereo not given)	u	-9	4	-1.2%	-3	-16	5.0
Cn1cc(C=C2C(=O)CC(C)(C)CC2=O)c2ccccc21	-16%	-14	12	1.9%	-11	0	-3.1
CC(C)(C)c1ccc(C(=O)NCCOc2ccccc2)cc1	-5%	-4	-20	2.3%	8	-4	0.7
COc1ccc(/C=c2/sc3n(c2=O)NC2(c4ccccc4)N(C)C(=O)N(C)C2(c2ccccc2)N=3)cc1 (stereo not given)	10%	9	u	2.6%	4	-6	12
Nn1cnc2sc3c(c2c1=O)CCC3	9%	13	5	1.7%	-13	-10	-2.5
O=[N+]([O-])c1ccc(NCc2ccccc2)nc1	7%	4	15	1.7%	1	-9	-4.8
CCOc1ccccc1N(CC(=O)Nc1ccc(OC)c(OC)c1)S(=O)(=O)c1ccccc1	6%	-6	11	4.0%	-5	-14	3.2
Cc1ccc(C(=O)NC(=S)Nc2ccc3[nH]c(=O)[nH]c3c2)cc1	-15%	-6	-3	0.9%	-1	-12	0.5
COC(=O)CC(CP(=O)(O)CN(C)C=O)C(=O)OC (stereo not given)	12%	6	0	-0.1%	2	-5	-2.3
Cn1c(=O)c2c(ncn2CC(=O)N2CCN(c3ccc([N+](=O)[O-])cc3)CC2)n(C)c1=O	7%	3	10	-2.0%	1	-2	0.0
COc1ccc(/C=N/NC(=O)CN2CCS(=O)(=O)CC2)cc1	12%	0	-9	0.2%	20	-11	-2.8
CC(=O)C(Sc1nnnn1-c1ccccc1)C(C)=O	14%	-3	x	0.2%	6	-3	-4.5
N/C(=N\OC(=O)C1CCCCC1)c1ccccn1	-11%	2	-2	1.9%[38.3 µM]	4	13	-2.7
O=C(O)CCCCCN1C(=O)/C(=C\c2cn(-c3ccccc3)nc2-c2cccs2)SC1=S	u	-12	-4	0.4%	-12	-1	2.2
Cc1ccsc1/C=N/NC(=O)c1ccc2nc[nH]c2c1	-6%	9	14	0.3%	7	3	-1.4
Cc1ccc(S(=O)(=O)c2nc(-c3ccccc3)oc2N2CCC(C(N)=O)CC2)cc1	-11%	3	-1	3.0%	-13	-9	-5.8
CCn1c(C(=O)N2CCC(C(=O)NCc3ccc4c(c3)OCO4)CC2)cc2sccc21	3%	-2	11	0.6%	-11	3	2.2
O=C(C=Cc1ccccc1O)c1ccccc1O	x	1	x	-1.5%	8	-3	-1.3
COc1cc(/C=N/n2cnnc2)ccc1OS(=O)(=O)c1ccccc1[N+](=O)[O-]	13%	-21	-15	2.2%	-10	7	7.5
CC(C)CN(CCNC(=O)CN1C(=O)CSc2ccc(S(=O)(=O)N3CCOCC3)cc21)CC(C)C	17%	-1	-4	1.7%&2.7%	-3	-3	-5.8
CCCC(=O)N(Cc1cc2cc(OC)ccc2[nH]c1=O)c1ccccc1OC	x	-1	x	1.0%	3	-20	-3.1
O=C(NNC(=O)c1ccc(Br)s1)c1csc(N2CCOCC2)n1	x	x	-22	2.6%	-1	-3	-1.7
CCc1ccc(Sc2cc(C(=O)NCCN3CCOCC3)c3ccccc3n2)cc1	-2%	-4	0	-0.9%	-8	-25	-1.2
CC(C)=C(NC(=O)c1ccccc1)C(=O)NC(Cc1ccccc1)C(=O)O (stereo not given)	-2%	-2	19	-1.5%	-1	-1	0.6
COc1ccc(S(=O)(=O)N2CCOC2CNC(=O)C(=O)NCc2ccc(F)cc2)cc1 (stereo not given)	7%	-2	-13	4.7%	-1	28	0.2
Cc1cc(Nc2cc(F)ccc2C)n2nc(C)nc2n1	5%	-4	18	1.4%	4	-5	-9.3
CCN(CC)CCNc1nc2ccccc2n1C	-1%	2	2	-0.5%	1	-16	-2.7
Cc1ccc(Cn2nnnc2CN2CCC(NC(=O)c3ccccc3F)CC2)cc1	17%	4	-5	0.1%	0	-2	-1.5
Cc1ccc(N(C)S(=O)(=O)c2cccc(C(=O)Oc3ccc4c(C)cc(=O)oc4c3)c2)cc1	9%	-11	9	1.8%	3	-2	-3.1

Assay outcomes deposited in PubChem BioAssay by National Center for Advancing Translational Sciences (NCATS).
